# Sfp PPTase inh – qHTS Assay for Inhibitors of Bacillus subtilis Sfp phosphopantetheinyl transferase (PPTase); 4'-phosphopantetheinyl transferase ffp (Bacillus subtilis), Q9F4F7; Biochemical Sfp PPTase activity, qHTS; Potency, µM, inactives show max response, negative = inhibition, actives largely listed as inhibitors; 310,000 compounds, 3.5% hits; AID 1490, 2009; active means well fitted inhibition curve with a large enough effect; inconclusive means small, poorly fitted or top-dose-only effect, or another doubt; inactive means no such curve, though single readings can be large or run the other way;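 further: the enzyme is Sfp with the accession as filed and its product quenches rhodamine fluorescence; potency means the concentration at half of the fitted maximal effect; 0% = enzyme reaction without inhibitor and -100% = no enzyme wells; top concentration of the series not given in the record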
#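 Buffer: 50 mM Hepes-Na pH 7.6, 10 mM MgCl2, 0.01% Nonidet P-40, 0.01% BSA. Enzyme 15 nM, pre-exposed to compound 15 min; substrates then added and fluorescence change tracked over 30 min.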
# Menin-MLL FL inh – qHTS Assay for Inhibitors Targeting the Menin-MLL Interaction in MLL Related Leukemias: Competition With Fluorescein Labeled MLL-derived Peptide. 290,000 tested, under 10 active. FP activity change, % at 61.4 µM. Fluorescence polarization, fluorescein-MLL peptide displacement from menin. AID 1766, 2009; inconclusive = falling polarisation curve, or a change in total fluorescence; inactive = total fluorescence flat and polarisation flat or rising; no compound was filed as active; the % refers to the polarisation; negative = inhibition;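 further: % of control where 0% means no effect; inhibitors lower the polarisation; unlabelled MLL peptide was the positive control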
# ClpP mod – qHTS Assay for Activators of ClpP; ATP-dependent Clp protease proteolytic subunit (Bacillus subtilis (strain 168)), P80244; purified B. subtilis ClpP, FRET peptide cleavage, 20 min; Potency, µM (top dose mostly 57.5 µM), inactives show at the top dose activity change, negative = active; 340,000 compounds, 1.9% hits; active = well fitted falling curve with a large enough effect; inconclusive = small, poorly fitted or top-dose-only effect; inactive = no such curve, though single readings can be large or run the other way; further: potency means the concentration at half of the fitted maximal effect; the source files actives as falling curves though it sought activators and does not explain the sign; nearly all actives have a fitted effect of over 65% in size; many hits overshoot -100%
# Target sequence (P80244 whole entry, looked up): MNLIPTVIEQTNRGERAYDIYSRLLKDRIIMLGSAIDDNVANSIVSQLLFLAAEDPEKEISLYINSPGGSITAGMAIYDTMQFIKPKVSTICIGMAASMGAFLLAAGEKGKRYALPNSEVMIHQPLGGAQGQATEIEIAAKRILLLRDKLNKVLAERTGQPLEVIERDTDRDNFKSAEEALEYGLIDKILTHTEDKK
#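 ClpP 10 microg/mL final, pH 8 Tris/KCl buffer with BSA, glycerol, Tween-20; compound pinned in; FRET-FV substrate; RT 20 min; Ex320/Em430; ΔFRET vs ADEP 5.8 microM, DMSO, no enzyme.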
# D2 ag – Beta-Arrestin HTS for Positive Allosteric Modulators of the Human D2 Dopamine Receptor: Agonists; DiscoveRx PathHunter D2 beta-arrestin, luminescence, 90 min; 100% = 57 uM dopamine signal; activation, % (concentration not given with the values); 360,000 compounds, 0.084% hits; in the data active = activation above about 40%; inconclusive = about 15% to 40%; inactive = below about 15%; further: the text of the record calls up to 30% inactive
# Target sequence (P14416 whole entry, looked up): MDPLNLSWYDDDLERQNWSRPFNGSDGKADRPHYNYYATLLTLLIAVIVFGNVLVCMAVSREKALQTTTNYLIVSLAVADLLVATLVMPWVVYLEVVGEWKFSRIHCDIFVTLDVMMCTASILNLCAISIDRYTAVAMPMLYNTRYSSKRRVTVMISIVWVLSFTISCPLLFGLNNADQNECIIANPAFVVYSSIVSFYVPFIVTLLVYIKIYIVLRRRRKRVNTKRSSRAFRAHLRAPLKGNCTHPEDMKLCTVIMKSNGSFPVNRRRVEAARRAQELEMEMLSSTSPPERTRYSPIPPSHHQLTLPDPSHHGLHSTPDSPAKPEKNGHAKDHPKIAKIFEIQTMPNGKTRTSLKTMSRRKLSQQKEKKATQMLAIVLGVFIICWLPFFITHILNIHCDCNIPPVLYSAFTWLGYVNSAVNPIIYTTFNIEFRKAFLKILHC
#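 DiscoveRx PathHunter D2 beta-arrestin cells (2,100/well) attached overnight, then compound-stimulated 90 min at 37 C in HBSS/10 mM HEPES/0.1% Tween-20 buffer; beta-galactosidase complementation read by luminescence after 1 h at ambient temperature. Dopamine 57 uM final (EC100) as control.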
# gsp ag – qHTS for Agonist of gsp, the Etiologic Mutation Responsible for Fibrous Dysplasia/McCune-Albright Syndrome: qHTS; gsp mutant cells, cAMP HTRF, 30 min; control for the full effect not named in the record; Potency, µM (series often up to 76.9 µM), for inactives: at the highest dose activation (cAMP increase), usual class: activators; 340,000 compounds, 0.13% hits; AID 624287, 2012; active = well fitted activation curve with a large enough effect; inconclusive = small, poorly fitted or top-dose-only effect, or another doubt; inactive = no such curve, though single readings can be large or run the other way; cell line not stated here;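 further: phosphodiesterase inhibitor Ro 20-1724 added with compounds to block cAMP breakdown; potency means the concentration at half of the fitted maximal effect; nearly all actives have a fitted effect of over 60% in size; about a fifth of the inactives were tested at one dose only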
#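 Cells stably selected in G418 were plated at 2000/well, grown 16-24 hr, then given compounds in DMSO with the PDE inhibitor […] (300 uM solution added) for 30 min at 37C; cAMP was read by HTRF.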
# PINK1 modulator – A Quantitative High throughput Screen to Identify Chemical Modulators of PINK1 Expression; 410,000 compounds, 0.2% hits; AID 624263, 2012; PINK1 immunofluorescence, high-content cytometry, 24 h; Potency, µM (titrated, usually from 76.6 µM), for inactives: at the highest dose activation (PINK1 increase), actives largely listed as activators; active = well fitted activation curve with a large enough effect; inconclusive = small, poorly fitted or top-dose-only effect; inactive = flat fitted curve, though single readings scatter; cell line not stated here;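 further: potency means the concentration at half of the fitted maximal effect; % of control where 0% means no effect; nearly all actives have a fitted effect of over 65% in size; a mitochondrial uncoupler was the plate control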
#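 A stable cell line was treated with compounds at 5 concentrations for 24 hours, with CCCP as control. PINK1 levels and mitochondrial localization were measured by immunofluorescence with mitochondrial, cell and nuclear markers after fixation, read by laser-scanning cytometry.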
# gsp antagonist – qHTS for Antagonists of gsp, the Etiologic Mutation Responsible for Fibrous Dysplasia/McCune-Albright Syndrome: qHTS; Potency, µM (series often up to 76.9 µM), for the others: top-dose activity change, negative = inhibition, most hits filed as inhibitors; gsp-mutant cells, cAMP HTRF, 30 min; control for the full effect not named in the record; 340,000 compounds, 0.4% hits; AID 624288, 2012; active = falling curve of any shape with a large fitted effect; inconclusive = falling curve, mostly with a smaller effect; inactive = flat or rising curve; cell line not stated here;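 further: intracellular cAMP measured with PDE inhibitor Ro 20-1724 present during compound exposure; potency means the concentration at half of the fitted maximal effect; on the % scale 0 is the no-effect control and ±100 the full control effect; nearly all actives have a fitted effect of over 65% in size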
#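 HTRF cAMP read-out (cAMP-d2 plus anti-cAMP antibody-K in lysis buffer, 30 min RT). Before lysis, cells are exposed to compounds with […] for 30 min at 37C in DPBS containing Ca/Mg, BSA and Tween 20.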
# Active calls of the source: *; ? = inconclusive; . = no result given; & = joins results of further samples; [ ] = remark or other dose.
SMILES,Sfp PPTase inh,Menin-MLL FL inh,ClpP mod,D2 ag,gsp ag,PINK1 modulator,gsp antagonist
O=C1C2CCCN2C(=O)N1CCCCN1CCN(c2ccccc2)CC1 (stereo not drawn),-24%,-2.4,-0.4%,?,-44%,3.2%,9%
O=C(Cc1ccccc1F)Nc1cc(S(=O)(=O)N2CCOCC2)ccc1N1CCCC1,.,.,.,-2.4,?,2.3%,-11%
O=C(NCCN1CCN(Cc2ccccc2)CC1)C1c2ccccc2C(=O)N2CCc3ccccc3C12 (stereo not drawn),33%[activator],3.4,1.8%,-5.6,0%,-0.4%,6%
COc1cccc(C2c3[nH]c4ccccc4c3C[C@H]3C(=O)N(CCCOC(C)C)CC(=O)N23)c1 (stereo partly drawn),9%,8.2,0.1%,2.7,?,-0.5%,3%
CN1CCN(c2ccc(-c3cccc4nccn34)cn2)CC1,.,.,4.5%,-3.5,.,0.9%,.
COc1ccc(CCN2C(=NC(C)=O)SC3CS(=O)(=O)CC32)cc1OC (stereo not drawn),15%,0.4,-11%,-1.0,-10%[15.4 µM],-0.4%,8%
CC(=O)C1=C(O)C(=O)N(CCCO)C1c1ccccc1 (stereo not drawn),71µM*,4.7,-4.7%,0.4,3%,.,6%
CCNC(=O)C(=O)Nc1cc2c3c(c1)CCC(=O)N3CCC2,9%,-0.1,0.7%,-0.3,13%,0.9%,-5%
CCOC(=O)C1CCN(C(=O)Nc2ccc(Cl)cc2)CC1,-5%,4.0,-0.8%,-2.6,-5%,-0.3%,6%
Clc1nc(NCCN2CCOCC2)nc(NCc2ccccc2)n1,-9%,-0.4,-0.8%,-5.9,-21%,-1.6%,8%
COc1cc(CNC(=O)c2cc(C(=O)NCc3cc(OC)cc(OC)c3)n(C)n2)cc(OC)c1,.,.,1.8%,-1.8,-7%[15.4 µM],0.6%,-15%
COc1ccc2c(C)c(C)c(=O)oc2c1OC,24%,1.4,.,1.1,18%[15.4 µM],0.5%,-21%
O=C(O)c1ccc(-c2nc(-c3ccc(Cl)c(Cl)c3)cs2)cc1,-16%,-1.2,3.4%,0.6,12%,0.6%,?
O=C(OCC#CCSc1nnc(-c2ccncc2)o1)c1sc2ccccc2c1Cl,?,1.3,0.4%,-2.1,8%[15.4 µM],-0.9%,9%
O=C(NCC1CCCO1)c1cccc(Oc2ccccc2)c1 (stereo not drawn),10%,.,0.8%,-2.8,7%,2.4%,11%
COc1ccccc1NC(=O)c1c(C)nn(-c2ccccc2)c1Cl,-12%,-4.7,1.8%,3.1,5%,0.3%,-19%
C=CCNCCCCOc1c(Cl)cc(C)cc1Br,-5%,4.4,-1.7%,-1.6,-22%,.,1%
CCCC1=Nc2cc(C(=O)N3CCC(C(N)=O)CC3)ccc2Sc2ccccc21,-5%,-0.1,-4.0%,1.5,-38%[inhibitor],0.4%,-10%
COc1ccc(NC(=O)C[C@@H]2C(=O)N(c3ccc(OC)cc3)CC2(C)C)cc1,.,.,-2.9%,-0.2,-52%[inhibitor],2.0%,.
O=C(Nc1cc(=O)[nH]c(=O)[nH]1)c1cc(Cl)ccc1Cl,18%,-4.7,-0.3%,0.5,-36%[inhibitor],3.3%,-11%
ON=C(c1ccccc1)c1ccc2c3c(cccc13)CC2,.,.,-1.4%,-2.5,4%,1.7%,.
COCCSc1nnc(NC(=O)C2CC(=O)N(c3ccccc3)C2)s1 (stereo not drawn),20%,3.7,.,-7.1,-1%[15.4 µM],0.5%,-10%
CCN(C[C@H]1N[C@@](C)(C(=O)OC)[C@H]2C(=O)N(C)C(=O)[C@@H]12)C(=O)Nc1ccc(C(F)(F)F)cc1,.,.,0.3%,-3.6,.,-1.2%,4%
COc1cc2nc(CN3CCOCC3)n(CC(=O)NCC(F)(F)F)c(=O)c2cc1OC,-3%,0.5,-0.1%,-2.4,-38%[inhibitor],0.7%,-1%

# The closing four entries of the part above are carried over, then new ones follow.
SMILES,Sfp PPTase inh,Menin-MLL FL inh,ClpP mod,D2 ag,gsp ag,PINK1 modulator,gsp antagonist
ON=C(c1ccccc1)c1ccc2c3c(cccc13)CC2,.,.,-1.4%,-2.5,4%,1.7%,.
COCCSc1nnc(NC(=O)C2CC(=O)N(c3ccccc3)C2)s1 (stereo not drawn),20%,3.7,.,-7.1,-1%[15.4 µM],0.5%,-10%
CCN(C[C@H]1N[C@@](C)(C(=O)OC)[C@H]2C(=O)N(C)C(=O)[C@@H]12)C(=O)Nc1ccc(C(F)(F)F)cc1,.,.,0.3%,-3.6,.,-1.2%,4%
COc1cc2nc(CN3CCOCC3)n(CC(=O)NCC(F)(F)F)c(=O)c2cc1OC,-3%,0.5,-0.1%,-2.4,-38%[inhibitor],0.7%,-1%
CCCC1=C(C(=O)OCC)C(c2ccco2)C(C#N)=C(N)O1 (stereo not drawn),-4%,8.8,-2.1%,-0.6,-10%,0.3%,2%
NC(=O)C1CCN(C(=O)/C(=C/c2ccccc2)NC(=O)c2ccccc2)CC1,4%,3.2,0.0%,-5.5,-42%[inhibitor],0.6%,3%
COc1ccc(Br)cc1C(=O)NC(=S)Nc1cc(-c2nc3ccccc3[nH]2)ccc1C,?,1.1,-2.3%,0.7,6%,-1.1%,14%
O=c1c(-c2cccs2)nc2cncnc2n1-c1ccccc1,8%,?,.,.,.,2.0%,.
Cc1ccc(NC(=O)C2C3C=CC4(O3)C2C(=O)N(CCCN2CCOCC2)C4C(=O)NC2CCCCC2)cc1Cl (stereo not drawn),30%[activator],6.2,.,4.7,-15%,3.0%,1%
CC1(C)CC(=O)C=C(NCc2ccncc2)C1,5%,1.4,-4.7%,-1.5,-31%[inhibitor],3.2%[38.3 µM],-2%
COC(=O)[C@@]1(Cc2ccccc2)[C@@H]2C(=CC(=O)[C@H]2CC(=O)C(=O)N(C)C)CN1C(=O)c1ccccc1,-3%&1%,4.6&0.1,0.7%,-4.3,.,-0.6%,3%
NC(N)=NS(=O)(=O)c1ccc(NC(=S)NC(=O)/C=C/c2ccccc2)cc1,2%,0.8,2.1%,-4.0,18%,0.7%,1%
COc1ccc(C2(CNC(=O)/C=C\c3ccco3)CCCC2)cc1OC,18µM*,17,-0.3%,-2.0,-18%,0.5%,-3%
Cc1ccc(C(=O)Oc2cccnc2)cc1[N+](=O)[O-],8%,5.5,.,-5.1,-11%[15.4 µM],0.7%,4%
CCN1CCN(C(CNS(=O)(=O)c2ccc(C)cc2)c2ccccc2)CC1 (stereo not drawn),13%,-0.9,1.1%,-4.4,?,-1.5%,13%
C=CCn1c(O)c(N=NC(=O)CNC(=O)c2ccncc2)c2ccccc21,11%,-4.5,0.8%,-0.3,12%,-1.0%,-11%
Oc1ccc2ccc3[nH]cnc3c2c1,3%,-2.9,-6.4%,-2.8,-37%[inhibitor],-0.8%,-4%
Cc1cc(N(CN2CCCC2=O)C(=O)c2ccc(OC(C)C)cc2)no1,16%,-0.6,1.1%,-1.6,-21%,0.8%,-6%
CCOC(=O)c1c(C)[nH]c(C(=O)OCC(=O)NCc2ccc(F)cc2)c1C,.,.,-0.4%,-0.8,6%,9.9%,7%
C=CCn1c(SCC(=O)NC2CC2)nnc1-c1cccc(OC)c1,16%,-3.7,0.4%,-5.4,13%,-1.1%,-4%
CCC(C)(C)NC(=O)C(c1ccc(OC)cc1)N(CCOC)C(=O)CCC(=O)Nc1nccs1 (stereo not drawn),-4%,-0.5,.,-2.6,1%[15.4 µM],-0.1%,9%
CC(C)CC(NC(=O)C(COCc1ccccc1)NC(=O)OC(C)(C)C)C(=O)NN (stereo not drawn),13%,-2.9,1.1%,-1.7,4%,-1.5%,10%
COCCN(C(=O)CNC(=O)c1ccco1)C(C(=O)NC1CCCCC1)c1cccc(OC)c1 (stereo not drawn),11%,3.7,0.1%,-2.6,-10%,-0.3%,-5%
Cc1cccc(-c2nc(CN3CCN(C(=O)C4CCCO4)CC3)cs2)c1 (stereo not drawn),10%,0.1,-1.7%,1.0,-1%,3.7%,-4%
CCCc1ccc(C(=O)NC(=O)c2ccccc2O)cc1,-3%,0.9,.,-2.0,-15%[15.4 µM],45µM*,?
O=C(NCc1cccc(C(F)(F)F)c1)C1CC(c2cccc(F)c2)=NO1 (stereo not drawn),12%,1.9,0.4%,-1.3,.,5.6%,1%
O=S(=O)(Nc1ccccn1)c1cccs1,20%,6.4,.,-1.6,6%[15.4 µM],3.3%,-28%
Cc1cccc(C)c1NC(=O)C1NC(=O)CC1c1ccccc1 (stereo not drawn),22%,-1.1,0.7%,-2.4,16%,-0.2%,7%
CC1CCN(C(=O)c2ccc(NS(=O)(=O)c3cccs3)cc2)CC1,0%,1.6,.,7.4,3%,0.5%,-21%
CCN(CC)S(=O)(=O)c1cc(C)ccc1SC,-9%,1.5,1.3%,0.8,-26%,5.8%,2%
CC(C)(C)c1nn2cnnc2n(/N=C/c2ccc(O)cc2)c1=O,7%,-0.5,7.1µM*,-0.5,-7%[15.4 µM],-1.7%,-8%
COC(=O)c1sc(N)c(C(=O)OC)c1CSc1nnnn1C,16%,1.1,-3.3%,-0.8,3%,6.7%,-5%
Cc1cc(=O)oc2cc(NC(=O)CCC(=O)O)ccc12,2%,-1.8,5.4%,-0.4,4%,?,12%
Cn1c(=O)c2[nH]cnc2n(-c2ccccc2)c1=O,-3%,1.4,-1.6%,0.3,-51%[inhibitor],-2.7%,7%

# Bioassay records: PubChem, National Center for Advancing Translational Sciences (NCATS)
